Screening data deposited in PubChem BioAssay by Broad Institute.
ID4 binder – ID4 (human) binding. calls only. P47928. AID 624137. 1.2% of 31,000 active. small molecule microarray, Flag-ID4 binding, fluorescence F/B;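 active = spot signal over background at p below 0.07 in all four prints; compounds were printed on slides so no solution concentration is given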;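 also: a binder raises fluorescence above local background on the spot; about 2 pmol printed per array spot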
Target sequence (P47928 whole entry, looked up): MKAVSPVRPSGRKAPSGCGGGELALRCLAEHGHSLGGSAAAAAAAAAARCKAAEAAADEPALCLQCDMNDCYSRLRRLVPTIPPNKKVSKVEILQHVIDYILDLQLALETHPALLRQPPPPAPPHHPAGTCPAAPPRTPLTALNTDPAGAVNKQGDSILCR
Myc binder – binds human c-Myc on microarray; 1.5% of 17,000 active; small molecule microarray, His-c-Myc binding, anti-His fluorescence; calls only; P01106;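 active = spot fluorescence over background with P-value below 7% in all four replicate spots, showing protein binding; compounds were printed on slides so no solution concentration is given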;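 also: score is binary with 100 for all four spots passing and 0 otherwise; about 2 pmol printed per array spot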
p53 mut binder – binds human mutant p53 on microarray. small molecule microarray binding, anti-GST fluorescence. calls only. 0.4% of 17,000 active. AID 624136;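 active = compounds whose four printed spots each glow above background more than chance allows, each with a p-value under 7%; compounds were printed on slides so no solution concentration is given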;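 also: about 2 pmol printed per array spot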
STAT3 binder – binders of human STAT3. P40763. Small molecule microarray, His-STAT3 binding, anti-His fluorescence. calls only. 0.2% of 17,000 active. AID 624138;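 active = compounds whose four printed spots each show fluorescence over background unusually high for their array block, chance value under 7%; compounds were printed on slides so no solution concentration is given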;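 also: about 2 pmol printed per array spot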
Target sequence (P40763 whole entry, looked up): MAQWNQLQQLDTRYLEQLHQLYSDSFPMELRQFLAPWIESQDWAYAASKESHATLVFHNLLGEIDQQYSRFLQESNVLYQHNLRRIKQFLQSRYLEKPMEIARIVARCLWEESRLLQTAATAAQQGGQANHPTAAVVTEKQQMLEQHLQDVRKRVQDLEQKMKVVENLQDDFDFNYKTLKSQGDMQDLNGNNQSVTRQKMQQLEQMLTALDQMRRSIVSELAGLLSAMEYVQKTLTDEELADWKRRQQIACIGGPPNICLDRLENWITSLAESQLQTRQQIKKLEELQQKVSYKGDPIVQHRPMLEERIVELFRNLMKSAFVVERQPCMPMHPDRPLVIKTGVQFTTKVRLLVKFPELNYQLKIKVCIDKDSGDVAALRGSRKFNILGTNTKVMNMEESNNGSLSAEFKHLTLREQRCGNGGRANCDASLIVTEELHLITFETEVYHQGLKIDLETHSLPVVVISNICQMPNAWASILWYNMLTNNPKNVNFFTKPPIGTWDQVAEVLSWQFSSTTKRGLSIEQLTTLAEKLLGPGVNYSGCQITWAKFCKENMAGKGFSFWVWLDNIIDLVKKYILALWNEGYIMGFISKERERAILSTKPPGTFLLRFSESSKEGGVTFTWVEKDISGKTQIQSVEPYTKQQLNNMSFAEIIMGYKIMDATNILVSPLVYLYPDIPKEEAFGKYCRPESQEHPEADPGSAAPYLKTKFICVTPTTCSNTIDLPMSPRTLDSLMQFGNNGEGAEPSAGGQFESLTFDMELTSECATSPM
Calls only; i = inactive; nt = not tested or not shown; + = active, no number. Some of the compounds tested, so the mix of outcomes need not match the whole.

The line under a structure holds: ID4 binder | Myc binder | p53 mut binder | STAT3 binder
1	O=C(COc1ccc(Cl)c2cccnc12)Nc1cccc([N+](=O)[O-])c1
→ i | i | i | i
2	Cc1cccc(NC(=O)CSc2nnc(-c3ccco3)n2C)c1C
→ i | i | i | i
3	O=C1NC2CCc3nc4ccccc4c(=O)n3C2=Nc2ccccc21 (stereo unspecified)
→ i | i | i | i
4	CC(C)NC(=O)N(C)C[C@H]1OCCCC[C@H](C)Oc2ccc(NS(=O)(=O)c3ccccc3)cc2C(=O)N([C@H](C)CO)C[C@@H]1C
→ i | i | i | i
5	Cc1noc(C)c1NC(=O)N(C)C[C@H]1OCCCC[C@@H](C)Oc2ccc(NS(=O)(=O)c3cn(C)cn3)cc2C(=O)N([C@H](C)CO)C[C@H]1C
→ i | i | i | i
6	CCO[C@H]1OC(C(=O)N2CCN(Cc3ccc4c(c3)OCO4)CC2)=C[C@@H](c2ccc3c(c2)OCO3)[C@@H]1CCCO
→ i | i | i | i
7	C[C@H](CO)N1C[C@H](C)[C@H](CN(C)Cc2ccc(-c3ccccc3)cc2)OCc2cn(nn2)CCCC1=O
→ nt | i | i | i
8	C[C@H]1CN([C@@H](C)CO)C(=O)Cc2cc(NC(=O)Cn3cnnn3)ccc2O[C@@H]1CN(C)C
→ i | i | i | i
9	COc1ccc(CN(C)C[C@H]2Oc3ccc(NC(=O)Cc4cn(C)c5ccccc45)cc3CC(=O)N([C@@H](C)CO)C[C@H]2C)cc1
→ i | i | i | i
10	C[C@@H]1CCCCO[C@@H](CN(C)S(=O)(=O)c2ccccc2)[C@@H](C)CN([C@@H](C)CO)C(=O)c2cc(N(C)C)ccc2O1
→ i | i | i | i
11	COc1ccc(S(=O)(=O)N(C)C[C@H]2Oc3ccc(NC(=O)Nc4cccc5ccccc45)cc3C(=O)N([C@H](C)CO)C[C@@H]2C)cc1
→ i | i | i | i
12	COC(=O)Cc1c(C)nc2nc(-c3ccco3)[nH]n2c1=O
→ i | i | i | i
13	COc1ccccc1OCCn1c(S(=O)(=O)O)nc2ccccc21
→ i | i | i | i
14	C[C@H](CO)N1C[C@H](C)[C@H](CN(C)C(=O)Nc2ccc(F)cc2)Oc2ccc(NC(=O)Cc3cn(C)c4ccccc34)cc2CC1=O
→ + | i | i | i
15	COc1ccccc1CN(C)C[C@H]1OCc2cnnn2CCCC(=O)N([C@@H](C)CO)C[C@@H]1C
→ i | i | i | i
16	COc1cc2ccc(=O)oc2cc1OC
→ nt | i | i | i
17	C[C@@H]1CN([C@H](C)CO)C(=O)CCCn2cc(nn2)CO[C@H]1CN(C)C
→ i | i | i | i
18	C[C@@H]1CN([C@@H](C)CO)C(=O)c2cc(NC(=O)Cc3ccccc3)ccc2O[C@@H](C)CCCCO[C@@H]1CN(C)C
→ i | i | i | i
19	CC(C)NC(=O)N(C)C[C@H]1OCCCC[C@H](C)Oc2ccc(N(C)C)cc2C(=O)N([C@H](C)CO)C[C@@H]1C
→ i | i | i | i
20	CCc1cccc(CC)c1NC(=O)Cn1cnc2ccccc2c1=O
→ i | i | i | i
21	C[C@@H]1CN([C@H](C)CO)C(=O)c2cc(N(C)C)ccc2O[C@H]1CN(C)Cc1ccc(C(F)(F)F)cc1
→ i | i | i | i
22	COC(=O)c1cc(OC)c(OC)cc1NC(=O)C(C)Oc1ccc(OC)cc1 (stereo unspecified)
→ i | i | i | i
23	CC(C)NC(=O)Nc1ccc2c(c1)C(=O)N([C@H](C)CO)C[C@H](C)[C@H](CN(C)C(=O)CCCN(C)C)OCCCC[C@@H](C)O2
→ i | i | i | i
24	C[C@@H]1CN([C@@H](C)CO)C(=O)CCCn2cc(nn2)CO[C@H]1CN(C)S(=O)(=O)c1ccc(-n2cccn2)cc1
→ i | i | i | i
25	CCCOc1ccc(Oc2nc(NC(C)(C)C)nc(N3CCOCC3)n2)nn1
→ i | i | i | i
26	C[C@@H]1CN([C@H](C)CO)C(=O)CCCn2nncc2CO[C@H]1CN(C)C(=O)c1ccccc1
→ i | i | i | i
27	O=C(C1=C[C@@H](c2ccccc2)C[C@@H](OCCCCO)O1)N1CCOCC1
→ nt | i | i | i
28	C[C@@H]1CN([C@@H](C)CO)C(=O)c2cc(NC(=O)Cc3ccccc3)ccc2O[C@H]1CN(C)C(=O)Nc1ccc(F)cc1
→ i | i | i | i
29	Cn1cnnc1SCC(=O)N1c2ccccc2Sc2ccc(C(F)(F)F)cc21
→ i | i | i | i
30	COc1ccc(-c2oc3cc(OC)ccc3c2C(=O)c2ccc(C#N)cc2)cc1
→ i | i | i | i
31	Cc1ccc(NC(=O)C(C)NS(=O)(=O)c2ccc(F)cc2)c(C)c1 (stereo unspecified)
→ i | i | i | i
32	C=C1[C@H]2CC[C@]3(O)[C@@](CC[C@@H]4[C@](C)(C(=O)O)CCC[C@]43C)(C2)[C@H]1OC(=O)/C(C)=C\C
→ i | i | i | i
33	O=C(C1=C[C@@H](C2CC2)C[C@@H](OCCCCO)O1)N1CCN(Cc2ccc3c(c2)OCO3)CC1
→ nt | i | i | i
34	Cc1nn2c(-c3cccc(NC(=O)CN4CCOCC4)c3)nnc2c2ccccc12
→ i | i | i | i
35	C[C@@H]1CCCCO[C@@H](CN(C)C(=O)CCC(F)(F)F)[C@H](C)CN([C@H](C)CO)C(=O)c2cc(NS(=O)(=O)c3cccs3)ccc2O1
→ i | i | i | i
36	Cc1noc(C)c1NC(=O)N(C)C[C@@H]1Oc2ccc(NC(=O)Nc3ccc(F)cc3)cc2C(=O)N([C@H](C)CO)C[C@@H]1C
→ i | i | i | i
37	C[C@@H]1CCCCO[C@@H](CN(C)C(=O)C2CCCCC2)[C@@H](C)CN([C@H](C)CO)C(=O)c2cc(NS(=O)(=O)c3cccs3)ccc2O1
→ i | + | i | i
38	C[C@@H]1CN([C@H](C)CO)C(=O)c2cc(NC(=O)Nc3ccc4c(c3)OCO4)ccc2O[C@@H]1CN(C)Cc1ccncc1
→ i | i | i | i
39	COc1ccc(S(=O)(=O)N(C)C[C@H]2Oc3ccc(NC(=O)Nc4ccc5c(c4)OCO5)cc3CC(=O)N([C@@H](C)CO)C[C@H]2C)cc1
→ i | i | i | i
40	Cn1c(SCc2ccccc2C#N)nnc1-c1ccc(NC(=O)c2ccc(F)cc2)cc1
→ i | i | i | i
41	C[C@H](CO)N1C[C@H](C)[C@H](CN(C)Cc2ccccc2)Oc2ncc(/C=C/c3ccccc3)cc2C1=O
→ i | i | i | i
42	C[C@H]1CN([C@@H](C)CO)C(=O)c2cc(NC(=O)CCC(F)(F)F)ccc2O[C@@H]1CN(C)C(=O)Nc1ccccc1
→ i | i | i | i
43	C[C@H]1CN([C@@H](C)CO)C(=O)Cc2cc(NC(=O)NC3CCCCC3)ccc2O[C@H]1CN(C)C(=O)Nc1ccc2c(c1)OCO2
→ i | i | i | i
44	COc1ccc(CN(C)C[C@H]2Oc3ccc(NC(=O)Cc4cn(C)c5ccccc45)cc3CC(=O)N([C@H](C)CO)C[C@@H]2C)cc1
→ i | i | i | i
45	OCc1cc2ncnc(Nc3ccc(O)c(Br)c3)c2cc1CO
→ i | i | i | i
46	COc1ccc(NC(=O)Nc2ccc3c(c2)C(=O)N([C@@H](C)CO)C[C@@H](C)[C@@H](CN(C)C(=O)C2CCCCC2)OCCCC[C@H](C)O3)cc1
→ nt | i | i | i
47	CC(=O)Cc1cc(=O)c2c(C)cc(O)c(C3OC(CO)C(O)C(O)C3O)c2o1 (stereo unspecified)
→ i | i | i | i
48	COc1ccc(CCNC(=S)N2CCN(c3ncccn3)CC2)cc1OC
→ i | i | i | i
49	O=C(NCc1ccco1)c1cc2nc(-c3cccs3)cc(C(F)(F)Cl)n2n1
→ i | i | i | i
50	O=C(CSc1n[nH]c(-c2cccc([N+](=O)[O-])c2)n1)Nc1cccc(C(F)(F)F)c1
→ i | i | i | i
51	C[C@@H]1CCCCO[C@H](CN(C)Cc2ccccc2)[C@H](C)CN([C@@H](C)CO)C(=O)c2cc(NS(=O)(=O)c3ccccc3)ccc2O1
→ i | i | i | i
52	CN(c1cccc(NC(=O)COc2ccccc2)c1)S(C)(=O)=O
→ i | i | i | i
53	C=CCOC(=O)C(=O)/C=C/c1cn(C(C)=O)c2ccccc12
→ nt | i | i | i
54	C[C@@H]1CCCCO[C@@H](CN(C)C(=O)C2CCCCC2)[C@H](C)CN([C@H](C)CO)C(=O)c2cc(NC(=O)c3ccncc3)ccc2O1
→ i | i | i | i
55	C[C@@H]1O[C@@H](O[C@@H]2CC[C@@]3(C)C(CC[C@]4(C)C3CC=C3[C@@H]5CC(C)(C)CC[C@]5(C(=O)O[C@@H]5O[C@H](CO)[C@@H](O)[C@H](O)[C@H]5O)CC[C@]34C)[C@]2(C)CO)[C@H](O)[C@H](O[C@@H]2OC[C@@H](O)[C@H](O)[C@H]2O)[C@H]1O (stereo partly specified)
→ i | i | i | i
56	Cc1ccc(O)c(N=Nc2ccccc2)n1
→ i | i | i | i
57	COc1ccc(S(=O)(=O)Nc2cccc3c2O[C@H](CN(C)C)[C@@H](C)CN([C@@H](C)CO)C3=O)cc1
→ i | i | i | i
58	N#Cc1ccccc1CSc1nc(N)cc(=O)[nH]1
→ i | i | i | i
59	C[C@H]1CN([C@@H](C)CO)C(=O)Cc2cc(NC(=O)NC3CCCCC3)ccc2O[C@@H]1CN(C)C
→ i | i | i | i
60	COc1ccc(NC(=O)CCCSc2nc(N)c3c(C)c(C)sc3n2)cc1
→ i | i | i | i

Continued.
The line under a structure holds: ID4 binder | Myc binder | p53 mut binder | STAT3 binder
61	C[C@H]1CCCCO[C@H](CN(C)S(=O)(=O)c2ccccc2)[C@@H](C)CN([C@@H](C)CO)C(=O)c2cc(NC(=O)CCC(F)(F)F)ccc2O1
→ i | i | i | i
62	COc1ccc(CN(C)C[C@H]2Oc3ccc(NC(=O)CCC(F)(F)F)cc3C(=O)N([C@@H](C)CO)C[C@@H]2C)cc1
→ i | i | i | i
63	C[C@@H]1CN([C@@H](C)CO)C(=O)c2cccc(NC(=O)NC3CCCCC3)c2O[C@@H]1CN(C)S(=O)(=O)c1cccs1
→ i | i | i | i
64	CCc1ccc2c(c1)c1nc3ccccc3nc1n2CC(=O)OC
→ i | + | i | i
65	Cc1ccc(S(=O)(=O)N(C)C[C@@H]2Oc3ccc(NS(=O)(=O)c4cccs4)cc3CC(=O)N([C@@H](C)CO)C[C@@H]2C)cc1
→ nt | i | i | i
66	COC(=O)c1ccc(NC(=O)CN2C(=O)C3C4CC(c5ccccc5)C(C4)C3C2=O)cc1 (stereo unspecified)
→ i | i | i | i
67	COc1cc2c(cc1O)C(c1cccs1)N(C)CC2 (stereo unspecified)
→ i | i | i | i
68	C[C@@H]1CCCCO[C@H](CN(C)C)[C@@H](C)CN([C@@H](C)CO)C(=O)c2cc(NS(=O)(=O)c3ccc(F)cc3)ccc2O1
→ nt | i | i | i
69	COc1ccc(NC(=O)Nc2ccc3c(c2)C(=O)N([C@H](C)CO)C[C@H](C)[C@H](CN(C)S(=O)(=O)c2cn(C)cn2)O3)cc1
→ i | i | i | i
70	C[C@@H]1CN([C@@H](C)CO)C(=O)Cc2cc(NC(=O)Cc3ccccc3)ccc2O[C@@H]1CN(C)C(=O)Nc1ccccc1
→ i | i | i | i
71	CC1=C(CO)CC(C(C)C2CCC3C4CC=C5CC(OC6OC(COC7OC(CO)C(O)C(O)C7O)C(O)C(O)C6O)CC(O)C5(C)C4CCC23C)OC1=O (stereo unspecified)
→ i | i | i | i
72	C[C@@H]1CN([C@@H](C)CO)C(=O)c2cc(NS(=O)(=O)c3ccc(F)cc3)ccc2O[C@@H](C)CCCCO[C@@H]1CN(C)Cc1ccc(C(=O)O)cc1
→ nt | i | i | i
73	Cc1nnc(NCc2ccco2)[nH]c1=O
→ i | i | i | i
74	C[C@@H]1CN([C@H](C)CO)C(=O)c2cc(NS(=O)(=O)c3cn(C)cn3)ccc2O[C@@H]1CN(C)Cc1ccccc1
→ i | i | i | i
75	COc1ccc(CN(C)C[C@@H]2Oc3ccc(NC(=O)c4ccncc4)cc3CC(=O)N([C@@H](C)CO)C[C@@H]2C)cc1
→ i | i | i | i

Complete entries, quoted from the list. Screens in order: ID4 binder | Myc binder | p53 mut binder | STAT3 binder
Shown for `C[C@H]1CCCCO[C@H](CN(C)S(=O)(=O)c2ccccc2)[C@@H](C)CN([C@@H](C)CO)C(=O)c2cc(NC(=O)CCC(F)(F)F)ccc2O1` : i | i | i | i
Shown for `COc1ccc(CN(C)C[C@H]2Oc3ccc(NC(=O)CCC(F)(F)F)cc3C(=O)N([C@@H](C)CO)C[C@@H]2C)cc1` : i | i | i | i
Shown for `COc1cc2c(cc1O)C(c1cccs1)N(C)CC2` (stereo unspecified) : i | i | i | i

Going on with the list:
The line under a structure holds: ID4 binder | Myc binder | p53 mut binder | STAT3 binder
76	C[C@H]1CN([C@@H](C)CO)C(=O)c2cccc(NS(C)(=O)=O)c2O[C@H]1CN(C)C(=O)Nc1ccc(C(F)(F)F)cc1
→ i | i | i | i
77	C[C@H](CO)N1C[C@H](C)[C@@H](CN(C)C(=O)NC2CCCCC2)Oc2ccc(NS(C)(=O)=O)cc2CC1=O
→ i | i | i | i
78	COc1ccc(NC(=O)N(C)C[C@@H]2Oc3ccc(NS(=O)(=O)c4cn(C)cn4)cc3CC(=O)N([C@@H](C)CO)C[C@H]2C)cc1
→ nt | i | i | i
79	C[C@H]1CCCCO[C@H](CN(C)C(=O)Nc2ccccc2)[C@@H](C)CN([C@@H](C)CO)C(=O)c2cc(N(C)C)ccc2O1
→ i | i | i | i

Results in sequence from the list:
Nos. 32–37 in STAT3 binder read i, i, i, i, i, i
